Source: PubChem BioAssay
BJeLR viability – compounds reducing viability of BJeLR cells. BJeLR fibroblasts viability, CellTiterGlo ATP luminescence, 48 h; HRASV12, hTERT and SV40 LT/ST transformed. viability loss activity score, % (no concentration beside the values). 30,000 compounds, 0.64% hits. AID 2275; in the data active = viability loss activity score above about 50%; about a fifth of its hits are not listed in these tables;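 also: higher score means fewer live cells and less ATP luminescence; stock transfer was 50 or 100 nL into about 30 µL; 0% = vehicle wells and 100% = a reference killing control; one replicate is shown; the record names a cut of 85%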
A1 inh – blocks A1 activity; 21,000 compounds, 0.51% hits; caspase activation, % (test concentration not listed); AID 2241; MEF A1-2A-BIM cells, caspase-Glo luminescence, 3 h; percent of clofoctol signal, DMSO as zero;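 active = most replicate scores above 10, or exactly half above 10 with mean activity above 10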;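 also: effector caspase 3 and 7 activity cleaving a DEVD luciferin substrate; 50 nL library stock added to about 30 µL; numbers are from one replicate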
* marks the source's active call; other numbers are inactive results; . = not tested or not shown; & = joins results of further samples.

Molecule,A1 inh,BJeLR viability
O=C(NCc1ccc2c(c1)OCO2)C1CCN(S(=O)(=O)c2ccc(Br)s2)CC1,.,-2.2
CNC[C@@H]1Oc2ccc(NC(=O)c3ccncc3)cc2C(=O)N([C@@H](C)CO)C[C@H]1C,-0.3,0.6
COc1cc(/C=C/C(=O)OC2CC3CCC2(C)C3(C)C)ccc1O (stereo not drawn),1.4,-10.2
C[C@H](CO)N1C[C@H](C)[C@H](CN(C)CC2CC2)Oc2c(NS(=O)(=O)c3cn(C)cn3)cccc2C1=O,.,-1.5
C[C@H](CO)N1C[C@H](C)[C@@H](CN(C)C(=O)Nc2ccc3c(c2)OCO3)Oc2ccc(NS(=O)(=O)c3ccc(F)cc3)cc2C1=O,0.4,5.2
c1ccc(OCCSc2nnc3sc4ccccc4n23)cc1,.,-0.8
CCOC(=O)[C@H](CCc1ccccc1)N[C@H](C)C(=O)N1C2CCCCC2C[C@H]1C(=O)O (stereo partly drawn),-0.6,-7.2
Cc1noc(C)c1S(=O)(=O)Nc1cccc2c1O[C@@H](CN(C)CC1CCCCC1)[C@@H](C)CN([C@@H](C)CO)C2=O,.,-3.2
CCN(CC)C(=S)Oc1ccc(I)cc1,-0.7,1.1
COc1ccc(S(=O)(=O)Nc2cccc3c2O[C@H](CN(C)Cc2ccc(C(F)(F)F)cc2)[C@H](C)CN([C@@H](C)CO)C3=O)cc1,.,-0.4
Cc1onc(-c2ccccc2)c1CN1C(=O)c2ccccc2S1(=O)=O,-0.2,3.8
Cc1nc2cc(-c3ccccc3)nn2c(C)c1CCC(=O)N1CCc2ccccc21,.,-8.8
CN1/C(=C2/SC(=S)N(c3ccccc3)C2=O)Sc2ccccc21,0.3,1.1
CC1CCCN(S(=O)(=O)c2ccc(C(=O)Nc3ccccc3-c3nc4ccccc4[nH]3)cc2)C1 (stereo not drawn),-1.5,-7.4
CS(=O)(=O)c1sc(C(=O)Nc2ccccc2Cl)c2c1C=CCC2,-0.2,-1.2

Arranged by heavy-atom count (smallest number first): part of the list above.
Molecule,A1 inh,BJeLR viability
c1ccc(OCCSc2nnc3sc4ccccc4n23)cc1,.,-0.8
COc1cc(/C=C/C(=O)OC2CC3CCC2(C)C3(C)C)ccc1O (stereo not drawn),1.4,-10.2
CC1CCCN(S(=O)(=O)c2ccc(C(=O)Nc3ccccc3-c3nc4ccccc4[nH]3)cc2)C1 (stereo not drawn),-1.5,-7.4

The list continues.
Molecule,A1 inh,BJeLR viability
CNC[C@@H]1Oc2c(NS(=O)(=O)c3ccc(C)cc3)cccc2C(=O)N([C@@H](C)CO)C[C@@H]1C,.,9.8
CCn1c2ccccc2n2cc(-c3ccccc3)nc12,-2.9,-5.7
COC(=O)c1c(-c2ccc(C)c(C)c2)csc1NC(=O)C1CCCCC1C(=O)O (stereo not drawn),.,-6.6
C[C@H]1CN([C@@H](C)CO)C(=O)c2cccc(NC(=O)Nc3ccccc3)c2O[C@@H]1CN(C)Cc1ccc(C(F)(F)F)cc1,.,-3.3
COc1ccc2nc3oc(C(=O)Nc4ccc(C(C)C)cc4)cc3cc2c1,.,20.9
COc1ccc(S(=O)(=O)Nc2ccc3c(c2)C(=O)N([C@@H](C)CO)C[C@H](C)[C@@H](CN(C)CC2CC2)O3)cc1,-0.7,0.1
c1cnc(N2CCN(Cc3ccc4c(c3)OCO4)CC2)nc1,-0.1&0.8,3.5&-4.3
c1ccc(-c2n[nH]c3ccccc23)cc1,-0.6,0.1
O=C(Nc1ccccc1)Nc1cccc2ccccc12,-4.4,2.3
CC1=NN(C(=O)CSc2nc3ccccc3s2)C(C)(O)C1 (stereo not drawn),0.8,2.4
CSc1nnc(SC)n1CCNC(=O)c1c(Cl)cccc1Cl,0.4,2.1
O=C(O)c1cccc(NC(=O)c2cccc(S(=O)(=O)N3CCCCC3)c2)c1,1.9,-2.8
CN(Cc1ccccc1)C(=O)CCc1nc2cccnc2n1-c1ccccc1,.,0.6
COc1ccc(S(=O)(=O)Nc2ccc3c(c2)C(=O)N([C@H](C)CO)C[C@H](C)[C@H](CN(C)S(=O)(=O)c2cn(C)cn2)O3)cc1,-0.4,4.7
C[C@H]1CN([C@@H](C)CO)C(=O)c2cccc(NC(=O)c3cnccn3)c2O[C@@H]1CN(C)C(=O)Nc1cccc2ccccc12,.,-5.5

(cont.)
Molecule,A1 inh,BJeLR viability
CCOC(=O)c1sc2ccc(S(=O)(=O)N3CCOCC3)cc2c1N,-0.2,5.7
Cc1noc(C)c1NC(=O)Nc1ccc2c(c1)C(=O)N([C@@H](C)CO)C[C@H](C)[C@H](CN(C)S(=O)(=O)c1ccccc1)O2,0.3,-0.4
CN1CCN(C(=O)c2ccc(N)cc2)CC1,0.2,4.9
COC(CNC(=O)Cc1ccc(-n2c(=O)[nH]c3ccsc3c2=O)cc1)OC,.,-0.1
CC(C)Cc1ccc(/C=C/C(=O)N2CCOCC2)cc1,-5.5,-3.6
C[C@@H]1CN([C@H](C)CO)C(=O)c2cccc(NC(=O)C3CC3)c2O[C@@H]1CN(C)Cc1ccc(Oc2ccccc2)cc1,.,0.9
COc1c(OC)c2occc2c2oc(=O)ccc12,1.1,-5.9
C[C@H]1CN([C@@H](C)CO)C(=O)c2cccc(NS(=O)(=O)c3cn(C)cn3)c2O[C@@H]1CN(C)Cc1ccc(C(F)(F)F)cc1,.,9.5
Cc1noc(C)c1NC(=O)Nc1cccc2c1O[C@@H](CN(C)C(=O)Nc1ccccc1)[C@@H](C)CN([C@H](C)CO)C2=O,.,-0.8
Cn1c2ccccc2c2cnn(CC(=O)NCc3ccc4c(c3)OCO4)c(=O)c21,-0.2,0.4
O=C(O)c1c2c(nc3ccccc13)CCC(c1ccccc1)C2 (stereo not drawn),-0.5,-5.2
CC(C)Oc1ccc(C(=O)NC(CC(=O)O)c2ccccc2)cc1 (stereo not drawn),1.5,1.2
Nc1cc(-c2ccccc2)nn1S(=O)(=O)c1ccccc1,0.8,8.7
CN1OC(COC(=O)c2cc(Cl)cc(Cl)c2)CC12C1CC3CC(C1)CC2C3 (stereo not drawn),0.7,5.3
c1ccc(C2CC(c3cccs3)n3nnnc3N2)cc1 (stereo not drawn),-0.1,15.8

(list continues)
Molecule,A1 inh,BJeLR viability
Oc1cccc(-c2nc3ccc4ccccc4c3c3c2CCCC3)c1,-0.2,-5.7
O=C(Nc1ccc2c(c1)OCO2)C(=S)NCc1ccccc1,-2.3,4.0
C[C@@H]1CN([C@H](C)CO)C(=O)c2cc(NC(=O)C3CC3)ccc2O[C@@H]1CN(C)C,-0.5,-4.6
Cc1ccc(C(=O)N/C(=C\c2cn(-c3ccccc3)nc2-c2ccccc2)C(=O)O)cc1,1.2,0.2
COc1ccc(NC(=O)N(C)C[C@@H]2Oc3ccc(NC(=O)Cn4cnnn4)cc3C(=O)N([C@H](C)CO)C[C@H]2C)cc1,0.1,0.7
Cc1ccc(S(=O)(=O)N(C)C[C@@H]2Oc3ccc(NC(=O)CCC(F)(F)F)cc3C(=O)N([C@@H](C)CO)C[C@@H]2C)cc1,-0.4,-2.9
CCOc1cc(C(=S)N2CCOCC2)ccc1OC,-0.5,-3.9
CCC(C)/C=C/C1=CC2=C(Cl)C(=O)C3(C)OC(=O)C(C(=O)C(C)C(C)O)C3C2=CO1 (stereo not drawn),4.5,11.4
C[C@H](CO)N1C[C@H](C)[C@@H](CN(C)Cc2ccc(C(F)(F)F)cc2)Oc2ccc(NS(=O)(=O)c3ccc(Cl)cc3)cc2C1=O,-0.3,7.4
Cc1nn(-c2ccccc2)nc1CNS(=O)(=O)c1ccc2c(c1)OCCN2C,0.0,2.4
CCSC1=N/C(=C\c2cccc(F)c2)C(=O)S1,-0.4,-3.2
C[C@H](CO)N1C[C@H](C)[C@H](CN(C)S(=O)(=O)c2ccccc2)Oc2ccc(NC(=O)C3CC3)cc2C1=O,0.5,6.9
CC(Oc1ccc(Cl)cc1Cl)C(=O)NC1=NN(c2ccccc2)C(=O)C1 (stereo not drawn),0.9,-1.3
COc1c2c(cc3oc(=O)ccc13)OC(C)(C)C=C2,-0.7,1.1
CCN(CC)C(=O)C1c2ccccc2C(=O)N2CCc3cc(OC)c(OC)cc3C12 (stereo not drawn),.,-2.2

New compounds follow:
Molecule,A1 inh,BJeLR viability
CC1=Nc2cc(C(=O)N(C)Cc3ccccc3)ccc2Sc2ccc(Cl)cc21,.,15.4
CNC[C@H]1Oc2ccc(NS(=O)(=O)c3ccc(C)cc3)cc2C(=O)N([C@H](C)CO)C[C@H]1C,-0.3,-0.3
C[C@H]1CN([C@@H](C)CO)C(=O)c2cccc(NC(=O)Nc3ccc(C(F)(F)F)cc3)c2O[C@@H]1CN(C)Cc1ccc2c(c1)OCO2,.,0.3
C[C@@H]1CN([C@@H](C)CO)C(=O)c2cc(N(C)C)ccc2O[C@H]1CN(C)C(=O)NC1CCCCC1,0.4,-2.9
C[C@@H]1CN([C@@H](C)CO)C(=O)c2cccc(NS(=O)(=O)c3ccc(F)cc3)c2O[C@@H]1CN(C)S(=O)(=O)c1cccs1,.,1.0
Cc1ccc(S(=O)(=O)CCN2CCN(c3ccccc3)CC2)cc1,0.4,-0.2
CC(C)(C)c1cc(C(C)(C)C)n(-c2ccc(C(=O)NN)cc2)n1,0.9,-1.7
C[C@@H]1CN([C@H](C)CO)C(=O)c2cccc(NC(=O)NC3CCCCC3)c2O[C@H]1CN(C)Cc1ccccc1,.,-0.9
C[C@]12C=CC(=O)C=C1CC[C@@H]1[C@@H]2C(=O)C[C@@]2(C)[C@H]1CC[C@]2(O)C(=O)CO,-0.6,3.5
COc1ccc(CN(C)C[C@@H]2Oc3c(NC(=O)Nc4ccc(C(F)(F)F)cc4)cccc3C(=O)N([C@@H](C)CO)C[C@H]2C)cc1,.,-0.1
O=C(c1cc(-c2ccc(F)cc2)no1)N1CCOCC1,-4.9,7.6
Cc1noc(C)c1NC(=O)Nc1cccc2c1O[C@H](CN(C)S(=O)(=O)c1ccc(F)cc1)[C@H](C)CN([C@H](C)CO)C2=O,.,0.2
C=CCn1c2ccccc2c2nnc(SC(CC)C(=O)Nc3nnc(C(F)(F)F)s3)nc21 (stereo not drawn),0.3,0.3
COc1ccc(S(=O)(=O)N(C)C[C@@H]2Oc3c(NC(=O)C4CCOCC4)cccc3C(=O)N([C@@H](C)CO)C[C@@H]2C)cc1,.,2.0
Cc1noc(C)c1S(=O)(=O)N(C)C[C@@H]1Oc2c(NC(=O)C3CCCCC3)cccc2C(=O)N([C@@H](C)CO)C[C@@H]1C,.,-4.2

Some of the entries so far, field by field.
Compound: C[C@H]1CN([C@@H](C)CO)C(=O)c2cccc(NC(=O)Nc3ccc(C(F)(F)F)cc3)c2O[C@@H]1CN(C)Cc1ccc2c(c1)OCO2
  A1 inh: . | BJeLR viability: 0.3
Compound: C[C@@H]1CN([C@@H](C)CO)C(=O)c2cc(N(C)C)ccc2O[C@H]1CN(C)C(=O)NC1CCCCC1
  A1 inh: 0.4 | BJeLR viability: -2.9

Additional entries
Molecule,A1 inh,BJeLR viability
Cc1ccc(S(=O)(=O)Nc2ccc3c(c2)C(=O)N([C@@H](C)CO)C[C@@H](C)[C@H](CN(C)Cc2ccccc2)O3)cc1,-0.9,6.6
O=C(c1cccc(CN2CCN(c3nc(-c4ccccc4)ns3)CC2)c1)N1CCC(O)CC1,.,0.3
Cc1ccc(Oc2ccccc2)c(NC(=O)c2ccccc2)c1,-1.3,-2.4
COc1ccc(-c2nnc(-c3ccc(S(=O)(=O)c4ccccc4)cc3)o2)cc1OC,-0.1,1.8
O=C(Nc1ccccc1)N1CCN(c2ccc(F)cc2)CC1,0.5,1.2
NC(=O)c1ccccc1NCC(=O)c1ccc(F)cc1,-1.0,-4.4
Cc1cc(C(=O)CSc2ncnc3sc4c(c23)CCCC4)c(C)n1Cc1ccco1,-1.0,4.8
Clc1ccc(OCc2nc(CSc3cccs3)no2)c(Cl)c1,-0.5,-0.6
CCOC(=O)N1CCC(NC(=O)C2CCCCN2S(=O)(=O)c2ccc(F)cc2)CC1 (stereo not drawn),.,-1.4
Cc1cc(C(=O)Nc2cccc3c2O[C@@H](CN(C)Cc2ccc(-c4ccccc4)cc2)[C@H](C)CN([C@@H](C)CO)C3=O)n(C)n1,.,0.2
COC(=O)c1sccc1NC(=S)N(C)CCC#N,.,0.7
CC(=O)Nc1nc(C2CC2)cc(-c2ccccc2)c1C#N,0.4,-1.0
CSc1cccc(NC(=O)N(Cc2ccccc2)C(=O)CC#N)c1,-0.3,-5.4
COc1ccc(NC(=O)N(C)C[C@@H]2Oc3c(NC(=O)C4CCOCC4)cccc3C(=O)N([C@H](C)CO)C[C@@H]2C)cc1,.,3.1
COC(=O)c1ccc(NC(=O)Nc2ccccc2)cc1,-7.0,12.6

Continuation.
Molecule,A1 inh,BJeLR viability
CCCSc1nnc(Cn2c(=O)sc3ccccc32)n1-c1ccccc1,-0.4,-1.7
CCN(CC)C(=S)SCc1nc(N)nc(Nc2ccccc2)n1,0.1,-10.9
CC(C)NC(=O)N(C)C[C@H]1Oc2c(NC(=O)Nc3ccc(C(F)(F)F)cc3)cccc2C(=O)N([C@@H](C)CO)C[C@H]1C,.,-0.1
Cc1ccc(Nc2cc(C(=O)N3CCCC3)c3ccccc3n2)cc1C,-0.5,3.9
C[C@H](CO)N1C[C@H](C)[C@@H](CN(C)Cc2ccc3c(c2)OCO3)Oc2ccc(N(C)C)cc2C1=O,-0.2,1.5
O=C(CCc1ccccc1)c1c(O)cc(O)cc1O,-2.4,3.4

Some of the compounds tested (hit frequency here may not be typical).
